Rango release inh: qHTS Assay for Inhibitors of RanGTP induced Rango (Ran-regulated importin-beta cargo) - Importin beta complex dissociation. Biochemical FRET Rango-importin beta, RanGTP-induced dissociation. Potency, µM (titrated, usually from 46.1 µM), for inactives: at the highest dose activity change, negative = inhibition. actives 0.071% (n = 340,000); active means falling FRET ratio curve, often poorly fitted, with flat reads before Ran was added; inconclusive means other falling curves, or compound fluorescence or quenching; inactive means flat or rising ratio curve;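 note: potency is the fitted concentration of half-maximal effect; % of control where 0% means no effect; nearly all actives have a fitted effect of over 45% in size; -100% = wells without RanGTP and RCC1; the record marks most hits as doubtful in a second field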
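Rango/importin beta premix (0.1/0.25 uM final), PBS + 1 mM DTT + 0.02% Tween-20 + 0.1% BSA; cpd 5 min RT; FRET pre-read; + RanGTP-RCC1 (0.6 uM Ran, 2 mM GTP, 0.2 uM RCC1); 45 min RT; FRET post-read, ex 430, em 486/530 nm.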
GLA inh pH 4.5: qHTS Assay for Inhibitors of Human alpha-Galactosidase at pH 4.5; Alpha-galactosidase A (Homo sapiens), P06280; activity change, negative = inhibition, % at 105 µM; purified enzyme, 4-MU-alpha-Gal fluorescence, pH 4.5; 230,000 tested, under 10 active; inconclusive = small, poorly fitted or top-dose-only inhibition, or a rising curve; inactive = flat fitted curve, though single readings scatter; no compound was filed as active;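 note: 0% = full activity with enzyme and -100% = basal without enzyme; dose as in the result columns while the protocol names 77 µM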
miR-21 FLuc: qHTS Assay for Modulators of miRNAs and/orActivators of miR-21 | HeLa miR-21 FLuc reporter, luciferase, 48 h | Potency, µM (series often up to 38.3 µM), for inactives: at the top dose reporter change, positive = more light | 340,000 tested, under 10 active | AID 2288, 2010; active = well fitted rising curve with a large enough effect; inconclusive = small, poorly fitted or top-dose-only effect; inactive = no such curve, though single readings can be large or run the other way;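 note: % of control where 0% means no effect; miR-21 action dims this reporter so a rising signal means less miR-21 action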
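HeLa cells endogenously expressing miR-21, stably carrying CMV-driven firefly luciferase with a downstream miR-21 binding site, 2000 cells/well. Titrations up to approximately 40 uM, 48 hours; luciferase luminescence read.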
Rango-impB inh: qHTS Assay for Inhibitors of Rango (Ran-regulated importin-beta cargo) - Importin beta complex formation | Importin subunit beta-1 (Homo sapiens), Q14974 | AID 540263, 2011 | actives 0.031% (n = 340,000) | Potency, µM (top dose mostly 92.2 µM), inactives show top-dose inhibition of complex formation | Rango CFP/YFP FRET sensor + importin beta, 45 min; active = rising FRET ratio curve, often small or poorly fitted; inconclusive = mostly compound fluorescence or quenching in the first reads; inactive = flat curves in all reads;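 note: potency is the fitted concentration of half-maximal effect; 0% = DMSO wells and 100% = buffer wells lacking importin beta; nearly all actives have a fitted effect of over 15% in size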
Target sequence (Q14974 whole entry, looked up): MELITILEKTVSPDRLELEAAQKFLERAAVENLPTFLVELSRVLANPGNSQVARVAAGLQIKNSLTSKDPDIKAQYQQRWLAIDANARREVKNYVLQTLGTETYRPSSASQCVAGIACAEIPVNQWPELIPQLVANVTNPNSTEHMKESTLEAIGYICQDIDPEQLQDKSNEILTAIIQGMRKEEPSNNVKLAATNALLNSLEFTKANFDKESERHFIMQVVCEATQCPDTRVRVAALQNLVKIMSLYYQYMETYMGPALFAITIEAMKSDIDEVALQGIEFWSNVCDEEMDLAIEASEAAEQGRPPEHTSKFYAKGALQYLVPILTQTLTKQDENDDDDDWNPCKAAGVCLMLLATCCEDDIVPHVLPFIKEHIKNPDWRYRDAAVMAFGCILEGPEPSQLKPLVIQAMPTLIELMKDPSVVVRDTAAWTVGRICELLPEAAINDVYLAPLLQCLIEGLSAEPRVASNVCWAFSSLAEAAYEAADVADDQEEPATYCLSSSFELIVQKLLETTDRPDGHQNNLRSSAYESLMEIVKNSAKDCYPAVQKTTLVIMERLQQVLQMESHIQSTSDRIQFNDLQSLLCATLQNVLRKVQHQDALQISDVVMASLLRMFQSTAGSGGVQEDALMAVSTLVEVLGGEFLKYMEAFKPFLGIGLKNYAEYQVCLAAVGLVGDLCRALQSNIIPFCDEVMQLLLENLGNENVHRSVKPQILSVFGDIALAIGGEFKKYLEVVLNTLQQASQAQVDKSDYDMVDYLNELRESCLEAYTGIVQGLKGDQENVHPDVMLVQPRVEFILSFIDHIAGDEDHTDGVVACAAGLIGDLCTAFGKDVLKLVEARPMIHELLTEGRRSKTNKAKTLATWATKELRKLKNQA
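Inhibition scored from the CFP 486 nm/YFP 530 nm FRET ratio 45 min after adding 0.125 microM importin beta to 50 nM Rango biosensor preincubated 5 min with compound (room temperature, PBS with DTT, Tween-20, BSA). No-importin wells as positive control.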
Starred values were filed as active, the others as inactive; ? = inconclusive; . = no result given.

Abbreviations – A = Rango release inh; B = GLA inh pH 4.5; C = miR-21 FLuc; D = Rango-impB inh
molecule: CC1=C(c2ccc(C)cc2)[N+](=O)C(C)(C)N1[O-]
  A = 13.4%	B = -3.2	C = -61.3%	D = 0.4%

molecule: Cc1ccc(C(=O)NCCNC(=O)c2cccnc2)cc1
  A = 5.6%	B = .	C = -1.8%	D = -0.2%

molecule: Cc1cc(/C=C2/NC(=S)NC2=O)c(C)n1-c1cccnc1
  A = ?	B = -8.6	C = -40.0%	D = ?

molecule: CC(C)(C)OC(=O)N1CCC2(CC1)Oc1ccc(F)cc1C(=O)C21CC(c2cccnc2)=NO1 (stereo not drawn)
  A = -4.6%	B = -9.9	C = 7.3%	D = 4.8%

molecule: O=C1CC(c2ccc(F)cc2)C2=C(CCCC2=O)N1 (stereo not drawn)
  A = 3.2%	B = 9.0	C = -4.4%	D = -0.4%

molecule: CC(=O)c1ccc(C(=O)N(C)C2CCCN(Cc3ccccc3F)C2)s1 (stereo not drawn)
  A = 0.0%	B = .	C = -10.2%	D = -0.3%

molecule: CN(CCC#N)C(=S)Nc1ccc(S(=O)(=O)N2CCOCC2)cc1
  A = -5.2%	B = -6.8	C = -1.1%	D = 0.3%

molecule: Cc1nn(-c2cccc(Cl)c2)c(Cl)c1/C=N/NC(=O)c1cccs1
  A = -0.9%	B = 6.1	C = -25.1%	D = 4.9%

molecule: CCN(CC)CCCN1C(=O)CSC1c1ccc2c(c1)OCO2 (stereo not drawn)
  A = -1.8%	B = 2.2	C = -8.3%	D = -1.3%

molecule: CSc1ncccc1C(=O)NCCc1ccc(Cl)cc1
  A = 3.0%	B = 3.5	C = -8.5%	D = -0.6%

molecule: CC(=O)N1CCN(C(=O)CCNS(=O)(=O)c2ccc(Br)cc2)CC1
  A = -11.8%	B = .	C = .	D = -2.4%

molecule: COc1ccccc1N1CCN(C(=O)c2ccc(Cn3c(=O)[nH]c4ccsc4c3=O)cc2)CC1
  A = -0.3%	B = -1.7	C = 13.1%	D = -2.9%

molecule: Cc1cc(=O)oc2c3c(cc(OCC(=O)NCc4ccccc4)c12)OC(C)(C)CC3
  A = -7.1%	B = .	C = -9.7%	D = -0.8%

molecule: Cc1ccnc(NC(=O)c2cccc(NC(=O)c3ccccc3C)c2)c1
  A = 0.7%	B = .	C = -11.0%	D = 0.6%

molecule: CC(C)Oc1cccc(-c2cc(C(=O)N3CCN(S(C)(=O)=O)CC3)c3ccccc3n2)c1
  A = 3.2%	B = -7.3	C = -17.2%	D = 2.7%

molecule: CC(=O)c1ccc(NC(=O)C2CCN(S(=O)(=O)c3cccc4cccnc34)CC2)cc1
  A = 0.8%	B = -19.7	C = -4.7%	D = -0.1%

molecule: Cc1cc(NC(=O)CSCC(=O)OCc2nnc(-c3ccccc3)o2)no1
  A = 0.6%	B = .	C = -9.6%	D = -0.2%

molecule: CCCCNC(=O)C12CCC(C)(C(=O)C1Br)C2(C)C (stereo not drawn)
  A = -3.4%	B = 5.0	C = 17.3%	D = -1.5%

molecule: CCOC(=O)C1=C(COC(=O)CCOc2ccccc2)NC(=O)NC1C (stereo not drawn)
  A = -2.1%	B = .	C = .	D = 0.6%

molecule: COc1cc(NC(=O)C2CCCCC2)c(OC)cc1NC(=O)c1ccccc1
  A = -12.1%	B = .	C = -0.5%	D = -1.6%

molecule: C/C(CC(=O)Nc1ccc2c(c1)OCCO2)=N\NC(=O)COc1ccccc1C
  A = -6.6%	B = .	C = -4.7%	D = 3.9%

molecule: COc1ccccc1C(=O)C1CCCN(Cc2cn[nH]c2C2CCCCC2)C1 (stereo not drawn)
  A = 9.5%	B = -7.1	C = -2.5%	D = 4.0%

molecule: Cc1ccc(Cl)cc1N1CCN(C(=O)c2ccc(CS(=O)Cc3ccc(Cl)cc3)o2)CC1 (stereo not drawn)
  A = 38.8%	B = .	C = 4.8%	D = -1.8%

molecule: CC(C(=O)N1CCN(c2ccc(Cl)cc2)CC1)c1ncc(C(F)(F)F)cc1Cl (stereo not drawn)
  A = 0.7%	B = -8.0	C = 5.6%	D = -0.1%

molecule: CN1CC(=O)N(CC(=O)NCc2ccc3c(c2)OCO3)C1=O
  A = 8.3%	B = 7.6	C = -4.0%	D = -0.1%

One compound at a time, as listed above:
Record of Cc1ccc(C(=O)NCCNC(=O)c2cccnc2)cc1 = Rango release inh: 5.6%; GLA inh pH 4.5: .; miR-21 FLuc: -1.8%; Rango-impB inh: -0.2%
Record of Cc1cc(/C=C2/NC(=S)NC2=O)c(C)n1-c1cccnc1 = Rango release inh: ?; GLA inh pH 4.5: -8.6; miR-21 FLuc: -40.0%; Rango-impB inh: ?

Continued.
Abbreviations – A = Rango release inh; B = GLA inh pH 4.5; C = miR-21 FLuc; D = Rango-impB inh
molecule: CC(=O)c1c(C)n(CC(=O)NCc2ccco2)c2ccccc12
  A = 2.2%	B = 0.3	C = 4.0%	D = -2.5%

molecule: CCOC(=O)C1CCCN(CC(=O)Nc2nccs2)C1 (stereo not drawn)
  A = -5.9%	B = .	C = 0.9%	D = -1.4%

molecule: O=C(CSc1cccc2cccnc12)N/N=C/c1ccc(O)cc1
  A = 0.7%	B = 0.7	C = -14.1%	D = -1.3%

molecule: Cc1nnc(SCC(=O)N2CCCC(C(=O)c3ccc(Cl)cc3)C2)o1 (stereo not drawn)
  A = -19.7%	B = .	C = 3.1%	D = -1.9%

molecule: O=C(CCC(=O)N(CC(=O)NC1CCCC1)Cc1ccc(F)cc1)Nc1nccs1
  A = 16.8%	B = .	C = -2.8%	D = -5.4%

molecule: COc1ccc(CNC(=O)C2CCCN(S(=O)(=O)c3ccccc3)C2)cc1 (stereo not drawn)
  A = 4.1%	B = .	C = 1.4%	D = 0.3%

molecule: CN1CCN(c2ccc(S(=O)(=O)N3CCOCC3)cc2NC(=O)CSCc2ccccc2)CC1
  A = -9.7%	B = .	C = .	D = -1.0%

molecule: COc1cc(O)c(CCC(=O)c2ccc(OC)c(OC)c2)c(OC)c1
  A = 9.5%	B = .	C = -3.4%	D = -1.1%

molecule: CCn1nc(C(=O)OC(C(=O)c2c[nH]c3ccccc23)c2ccccc2)c2ccccc2c1=O (stereo not drawn)
  A = 2.5%	B = 14.5	C = 0.4%	D = 0.4%

molecule: Cc1ccc(C)c(NC(=O)C(Sc2cccc[n+]2[O-])c2ccccc2)c1 (stereo not drawn)
  A = -9.7%	B = 1.5	C = 1.2%	D = -1.1%

molecule: CN(C)C(=O)CSc1nnc([C@H](Cc2ccccc2)NC(=O)OC(C)(C)C)o1
  A = 5.3%	B = -2.4	C = 0.1%	D = -1.9%

molecule: CCC(C)NC(=O)CSc1nc2n[nH]c(C)c2c(=N)n1-c1ccc(OC)cc1 (stereo not drawn)
  A = -10.2%	B = -7.7	C = -11.1%	D = -3.9%

molecule: C=CCNc1nc(C(F)(F)F)nc2c1nnn2Cc1ccccc1Cl
  A = 3.8%	B = .	C = 0.6%	D = 4.8%

molecule: O=C(O)[C@@H]1CCCN1C(=O)COc1ccc2c3c(c(=O)oc2c1)CCC3
  A = ?	B = .	C = -2.3%	D = -0.2%

molecule: CN(C)Cc1nc2c(c(=O)[nH]1)C1(CCCCC1)Cc1ccccc1-2
  A = -1.6%	B = 2.5	C = -3.0%	D = -0.9%

molecule: COc1ccccc1Oc1nc(-c2cccnc2)nc2ccccc12
  A = 7.0%	B = -2.0	C = -3.2%	D = 1.3%

molecule: CCOC1OC(=O)C(Cl)=C1Nc1ccc(C)cc1C (stereo not drawn)
  A = -6.1%	B = -6.4	C = -8.6%	D = -0.6%

molecule: COc1ccc(CCNC(=O)c2ccc3nc(N4CCOCC4)sc3c2)cc1OC
  A = 20.1%	B = .	C = -9.6%	D = -3.7%

molecule: Cc1cc(C)cc(N(CCC#N)C(=O)COC(=O)c2nc3nc(C)cc(C)n3n2)c1
  A = 17.3%	B = .	C = .	D = 0.1%

molecule: Cc1cc(=O)oc(C)c1C(=O)n1nc(C)c2c1C[C@@H]1[C@H]2C1(C)C
  A = -4.7%	B = 3.9	C = -2.2%	D = -1.4%

molecule: COc1ccc(C2CC2C(=O)c2ccccn2)cc1 (stereo not drawn)
  A = ?	B = 0.7	C = -55.4%	D = 4.4%

molecule: CCOc1cccc(C(=O)Nc2ccccc2N2CCN(C(=O)C(C)C)CC2)c1
  A = 1.1%	B = -3.6	C = 5.5%	D = -0.7%

molecule: CSCC(=O)N1CCC(Oc2cccc(C(=O)NCc3ccccn3)c2)CC1
  A = 0.4%	B = .	C = 2.2%	D = 0.0%

molecule: CC1(C)C(=O)Nc2ccccc2N1C(=O)COC(=O)c1ccc(NC(N)=O)cc1
  A = 21.8%	B = .	C = .	D = -2.9%

molecule: COc1cccc(OCc2cc(C(=O)NCc3ccc4c(c3)OCO4)no2)c1
  A = 17.8%	B = .	C = -38.8%	D = 5.3%

molecule: CCc1c(O)nc(SCC(=O)Nc2nc3ccccc3s2)n(-c2ccccc2)c1=O
  A = 3.6%	B = -1.5	C = -22.5%	D = 3.5%

molecule: COc1ccccc1-c1noc2ncnc(Nc3cccc(C)c3C)c12
  A = -12.2%	B = .	C = -7.4%	D = 4.2%

molecule: CN(C)c1ccc(NC(=O)/C=C/c2ccccc2Cl)cc1
  A = -5.8%	B = 2.4	C = -59.0%	D = 2.0%

molecule: CSc1ccccc1C(=O)NC1CCCCCC1
  A = -18.2%	B = -16.2	C = -6.5%	D = -0.6%

molecule: Cc1nn(-c2ccccc2)c(N)c1Sc1cccc([N+](=O)[O-])c1
  A = ?	B = -3.0	C = 0.4%	D = 1.3%

molecule: O=C(NCc1ccccc1F)C12CC3CC(CC(C3)C1)C2
  A = -9.3%	B = .	C = .	D = -3.0%

molecule: Cc1noc(C)c1COc1ccccc1C(=O)NCc1ccco1
  A = 10.9%	B = .	C = .	D = 0.2%

molecule: Cc1nc(NCCc2ccc(S(N)(=O)=O)cc2)c2c3c(sc2n1)CCC3
  A = -27.4%	B = -0.5	C = 2.1%	D = ?

molecule: O=C(CSc1ccccc1)Nc1ccc(-c2nc3ccccc3[nH]2)cc1
  A = -9.4%	B = -11.8	C = -37.8%	D = -1.4%

molecule: CC(C)c1ccc(NC2CCCN(C(=O)CCc3cnn(C)c3)C2)cc1 (stereo not drawn)
  A = -11.4%	B = .	C = 1.7%	D = -0.5%

molecule: CCOC(=O)Cc1csc(NC(=O)c2csc3c2CCCC3)n1
  A = -17.8%	B = -3.8	C = 25.3%	D = -5.2%

molecule: COC(=O)c1cn(NC(=O)c2ccc([N+](=O)[O-])c(C)c2)c(=O)c2ccccc12
  A = -4.0%	B = -12.6	C = -3.3%	D = -5.0%

molecule: C=CCOc1c(CNc2cccc(C(=O)O)c2)cccc1OC
  A = -2.5%	B = 4.0	C = -11.4%	D = -5.1%

molecule: CCC(=O)Nc1c(C)n[nH]c1C
  A = -11.4%	B = -4.9	C = 2.6%	D = -5.6%

molecule: COc1cc(/C=C/C(=O)NC(=O)c2ccccc2O)ccc1OC(C)=O
  A = 4.3%	B = .	C = -25.8%	D = -0.1%

molecule: Cc1ccncc1CNC(=O)c1ccccc1
  A = -20.7%	B = .	C = .	D = ?

molecule: O=C(OCc1ccccc1)N1CCc2ccccc21
  A = -7.3%	B = .	C = -60.6%	D = -0.9%

molecule: CCc1c(C)sc(NC(=O)C2CC2)c1C(=O)OC(C)C
  A = 0.3%	B = -7.3	C = -1.8%	D = 4.1%

molecule: O=C(O)c1ccc2c(c1)SC1=NS(=O)(=O)CCN12
  A = -9.5%	B = 1.9	C = -0.9%	D = -2.5%

molecule: CCNc1nc(NC(C)C)nc(Oc2ccc(=O)n(C)n2)n1
  A = -8.0%	B = 6.3	C = -1.0%	D = -1.6%

Taken from above.
Value for CC(=O)c1c(C)n(CC(=O)NCc2ccco2)c2ccccc12 in Rango-impB inh: -2.5%
Value for CCOC1OC(=O)C(Cl)=C1Nc1ccc(C)cc1C (stereo not drawn) in Rango-impB inh: -0.6%

A portion of the library, so the mix of outcomes need not match the whole.
